ClpP mod: qHTS Assay for Activators of ClpP | purified B. subtilis ClpP, FRET peptide cleavage, 20 min | Potency, µM (doses to about 57.5 µM), inactives show at the top dose activity change, negative = active | 1.9% of 340,000 active | ATP-dependent Clp protease proteolytic subunit (Bacillus subtilis (strain 168)), P80244; active = well fitted falling curve with a large enough effect; inconclusive = small, poorly fitted or top-dose-only effect; inactive = no such curve, though single readings can be large or run the other way; note: potency is the fitted concentration of half-maximal effect; the source files actives as falling curves though it sought activators and does not explain the sign; nearly all actives have a fitted effect of over 65% in size; many hits overshoot -100%
Target sequence (P80244 whole entry, looked up): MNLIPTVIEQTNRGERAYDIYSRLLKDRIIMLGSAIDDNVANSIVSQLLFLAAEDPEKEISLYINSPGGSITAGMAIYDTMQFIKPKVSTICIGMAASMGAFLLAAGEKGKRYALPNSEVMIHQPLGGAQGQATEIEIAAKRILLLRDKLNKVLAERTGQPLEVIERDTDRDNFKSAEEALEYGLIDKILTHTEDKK
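Buffer: 100 mM Tris/HCl pH8, 100 mM KCl, 0.05% low protease BSA, 2.5% glycerol, 0.01% Tween-20. ClpP 10 microg/mL final; 20 min RT; delta FRET normalized to ADEP and DMSO controls.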
gsp agonist: agonists of gsp mutant (McCune-Albright syndrome); gsp mutant cells, cAMP HTRF, 30 min; control for the full effect not named in the record; Potency, µM (series often up to 76.9 µM), without a hit: at the highest dose activation (cAMP increase), most hits filed as activators; 0.13% of 340,000 active; active = well fitted activation curve with a large enough effect; inconclusive = small, poorly fitted or top-dose-only effect, or another doubt; inactive = no such curve, though single readings can be large or run the other way; cell line not stated here;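 note: phosphodiesterase inhibitor Ro 20-1724 added with compounds to block cAMP breakdown; potency is the fitted concentration of half-maximal effect; nearly all actives have a fitted effect of over 60% in size; about a fifth of the inactives were tested at one dose only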
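Cells stably selected in G418 were plated at 2000/well, grown 16-24 hr, then given compounds in DMSO with the PDE inhibitor […] (300 uM solution added) for 30 min at 37C; cAMP was read by HTRF.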
Sfp inh: Sfp phosphopantetheinyl transferase inhibition; Biochemical Sfp PPTase activity, qHTS; Potency, µM, for inactives: max response, negative = inhibition, actives largely listed as inhibitors; AID 1490; Q9F4F7; 3.5% of 310,000 active; active = well fitted inhibition curve with a large enough effect; inconclusive = small, poorly fitted or top-dose-only effect, or another doubt; inactive = no such curve, though single readings can be large or run the other way;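 note: the enzyme is Sfp with the accession as filed and its product quenches rhodamine fluorescence; potency is the fitted concentration of half-maximal effect; 0% = enzyme reaction without inhibitor and -100% = no enzyme wells; top concentration of the series not given in the record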
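After 15 min at room temperature with compound, 15 nM Sfp received 5 uM rhodamine-CoA plus 12.5 uM BHQ-2-ybbR (50 mM Hepes pH 7.6, 10 mM MgCl2). Rate came from the fluorescence difference over 30 min, ex 525/em 598 nm.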
Menin MLL FP FL: menin-MLL binding inhibition, fluorescein peptide. Fluorescence polarization, fluorescein-MLL peptide displacement from menin. FP activity change, % at 61.4 µM. 290,000 tested, under 10 active. AID 1766; inconclusive = falling polarisation curve, or a change in total fluorescence; inactive = total fluorescence flat and polarisation flat or rising; no compound was filed as active; the % refers to the polarisation; negative = inhibition;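 note: % of control where 0% means no effect; inhibitors lower the polarisation; unlabelled MLL peptide was the positive control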
gsp antagonist: antagonists of gsp mutant (McCune-Albright syndrome); gsp-mutant cells, cAMP HTRF, 30 min; control for the full effect not named in the record; Potency, µM (titrated, usually from 76.9 µM), without a hit: top-dose activity change, negative = inhibition, hits mostly inhibitors; 0.4% of 340,000 active; active = falling curve of any shape with a large fitted effect; inconclusive = falling curve, mostly with a smaller effect; inactive = flat or rising curve; cell line not stated here;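 note: intracellular cAMP measured with PDE inhibitor Ro 20-1724 present during compound exposure; potency is the fitted concentration of half-maximal effect; % is set by controls: 0 for no effect and ±100 for the full control effect; nearly all actives have a fitted effect of over 65% in size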
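Cells, 2000/well, grown 16–24 h in DMEM 10% FBS with 0.5 mg/ml G418, then compounds plus […] (300 uM addition stock), 30 min at 37C. cAMP read by HTRF (cAMP-d2 and anti-cAMP antibody-K in lysis buffer) after 30 min RT.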
TRPV1 potentiator: enhances activation of the human vanilloid receptor TRPV1 | Q8NER1 | TRPV1-expressing cells, Fluo-8 calcium influx, capsaicin EC20 potentiation; host cell line not named in the record; control for the full effect not named in the record | potentiation, % at 8.33 µM | 0.02% of 320,000 active; active means potentiation above 80%; inconclusive means 30% to 80%; inactive means below 30%; note: 0% is about no effect
Target sequence (Q8NER1 whole entry, looked up): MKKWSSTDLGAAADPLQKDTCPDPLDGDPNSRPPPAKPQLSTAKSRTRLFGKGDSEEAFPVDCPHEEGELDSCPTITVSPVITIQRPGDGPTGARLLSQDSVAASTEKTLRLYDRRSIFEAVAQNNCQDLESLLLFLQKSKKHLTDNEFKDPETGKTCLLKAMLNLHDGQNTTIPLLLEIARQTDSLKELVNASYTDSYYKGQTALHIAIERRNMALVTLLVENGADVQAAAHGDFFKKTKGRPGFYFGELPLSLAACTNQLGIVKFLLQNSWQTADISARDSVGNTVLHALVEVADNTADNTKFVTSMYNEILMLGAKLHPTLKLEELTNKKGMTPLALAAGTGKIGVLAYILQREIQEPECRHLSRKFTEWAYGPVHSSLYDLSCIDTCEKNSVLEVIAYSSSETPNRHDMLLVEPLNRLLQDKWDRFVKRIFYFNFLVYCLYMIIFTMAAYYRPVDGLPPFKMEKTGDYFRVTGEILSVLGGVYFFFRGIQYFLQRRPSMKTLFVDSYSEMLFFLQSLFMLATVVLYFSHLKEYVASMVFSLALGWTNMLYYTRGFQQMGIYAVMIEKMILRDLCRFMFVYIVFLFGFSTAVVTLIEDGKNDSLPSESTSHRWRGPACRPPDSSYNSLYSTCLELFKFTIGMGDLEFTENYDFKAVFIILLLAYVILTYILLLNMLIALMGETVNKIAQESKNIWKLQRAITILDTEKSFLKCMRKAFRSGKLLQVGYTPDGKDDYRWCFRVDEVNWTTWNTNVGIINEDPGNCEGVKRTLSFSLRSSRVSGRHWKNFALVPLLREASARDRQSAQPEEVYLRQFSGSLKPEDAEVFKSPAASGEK
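TRPV1-expressing cells were cultured overnight at 35.5C and loaded with Fluo-8 calcium dye for 40 to 90 min at room temperature. After a 10 s baseline, compound was added and calcium influx was read kinetically for 3 min (ex 480/em 520 nm).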
CtBP-E1A blk: blocks the CtBP interaction with E1A. AlphaScreen GST-E1A/His-CtBP binding, 1536-well; stronger effect = lower value; control for the full effect not named in the record. activity change, % (test concentration not listed). 0.49% of 340,000 active. AID 651724; in the data active means activity change below about -65%; inconclusive means about -30% to -65%; inactive means above about -30%; note: % is set by controls: 0 for no effect and ±100 for the full control effect; compound concentration not given in the record
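Protein mix (5X: 125 nM each GST-E1A, His-CtBP) was incubated with pinned compound 2 h at 37 deg C in dark, in 50 mM Tris pH 8.0 buffer with 300 mM NaCl. Glutathione donor and nickel acceptor beads followed; AlphaScreen signal read after 1 h.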
* = called active by the depositor; ? = inconclusive; nt = no result given; & = joins results of further samples; [ ] = dose if it differs, or a comment.

SMILES	ClpP mod	gsp agonist	Sfp inh	Menin MLL FP FL	gsp antagonist	TRPV1 potentiator	CtBP-E1A blk
O=C(NCc1ccccc1Cl)C(=O)NCC1CCCN1S(=O)(=O)c1cccs1 (stereo not drawn)	-2.1%	-5.8%	nt	nt	-3.1%	12.9	-1.6
COc1ccc(N2CCN(c3ncnc4c3cnn4-c3ccc(C)cc3C)CC2)cc1	-5.8%	-6.2%	0.9%	-1.1	-16.1%	-6.6	-11.3
O=C(NC(=S)Nc1cccc(NC(=O)c2ccccc2)c1)c1cccc([N+](=O)[O-])c1	-5.6%	1.1%	22.5%	5.9	-1.3%	-4.0	-14.0
ClC1(Cl)CC1CSc1ncn[nH]1 (stereo not drawn)	nt	-9.4%[15.4 µM]	14.2%	-0.9	21.5%	9.6	15.6
COc1ccc(-c2noc(CCC(=O)N3CCN(c4cc(C)ccc4C)CC3)n2)cc1	1.3%	-10.6%	?	2.0	-11.7%	-3.2	3.3
COc1ccc(/C=C/C(=O)OCC(=O)c2c[nH]c3ccccc23)cc1	-0.7%	-5.2%	nt	nt	-3.3%	0.9	-5.0
CCCCOC(=O)n1c(=O)oc2ccc(S(=O)(=O)N3CCCCC3)cc21	nt	21.0%[15.4 µM]	4.8%	1.2	-24.1%	29.0	-1.9
COc1ccc(Cl)cc1NC(=O)NCCN1CCCCC1	nt	21.5%	22.0%	0.1	10.6%	1.4	3.5
CCCc1nc2nc(C)c(NS(=O)(=O)c3ccc(C(C)(C)C)cc3)c(=O)n2[nH]1	nt	?	5.6%	-0.3	0.7%	-8.1	-1.9
Cc1ccc(C(NC(=O)N2CCOCC2)C(Cl)Cl)cc1F (stereo not drawn)	-1.7%	-12.7%	15.8%	-0.7	2.0%	-11.1	3.5
O=C(NC(=S)Nc1ccc2[nH]ncc2c1)c1ccccc1	46.9%	-3.3%	-2.3%	14.9	?	-0.5	-0.4
COC(=O)c1ccc(CSc2nc3sc(C(=O)O)c(C)c3c(=O)[nH]2)cc1	nt	10.0%	18.3%	2.9	0.6%	6.7	-0.8
Cc1c(Cl)cccc1N1C(=O)CC(NNC(=O)c2cccnc2)C1=O (stereo not drawn)	0.9%	14.9%	7.4%	5.4	-0.2%	-1.0	-12.6
CCOC(=O)N1CCN(C(=O)CSc2nnc(-c3ccc(C(C)(C)C)cc3)o2)CC1	2.3%	16.6%	16.2%	7.5	-19.7%	-4.2	4.5
CCCC/C=C/C(NC(=O)CCc1ccccc1)c1ccccc1 (stereo not drawn)	-2.6%	4.8%	20.3%&20.3%	3.6&7.5	-3.0%	-27.3	nt
COc1ccc(NC(=O)CCNC(=O)Cn2cnc3sc4c(c3c2=O)CCCC4)c(OC)c1	nt	-12.6%[15.4 µM]	-14.6%	-5.7	-0.2%	6.6	6.0
CCC(C)(C)NC(=O)CC(c1ccc(OC)cc1)n1cccc1 (stereo not drawn)	0.7%	14.3%	26.7%	-2.0	-14.4%	-6.2	-3.6
Cc1ccc(S(=O)(=O)N2CCC(C(=O)Nc3ccccc3N3CCCCC3)CC2)cc1	-0.8%	-20.1%	?	1.0	-3.5%	-6.0	0.3
COc1ccc(N2CCN(C(=O)CNC(=O)Cc3ccc(Cl)cc3)CC2)cc1	-2.0%	?	16.9%	nt	11.4%	-3.0	9.4
Cc1ccc(S(=O)(=O)Nc2ccccc2C(=O)Nc2ccc(S(=O)(=O)Nc3nccc(C)n3)cc2)cc1	12.6µM*	?	15.1%	9.2	-5.2%	14.6	-18.4
O=C(CN1C(=O)C2C3C=CC(C3)C2C1=O)NCCc1ccccc1 (stereo not drawn)	1.4%	6.4%	4.9%	4.7	5.6%	-2.1	-2.8
S=C(NCc1ccc2c(c1)OCO2)NC1CC1	nt	1.0%[15.4 µM]	-0.4%	-1.9	nt	-6.7	-14.5
O=C(COCc1ccccc1)N[C@@H]1c2ccccc2CC[C@H]1OCc1ccccc1	-0.1%	nt	nt	nt	-14.0%	nt	-1.8
COc1ccc(C(=O)Nc2ccccc2-c2nnn(CC(N)=O)n2)cc1	nt	-6.0%[15.4 µM]	nt	nt	10.4%	nt	0.3
CC1(C)CC(=O)C2=C(C1)Nc1ccccc1NC2c1ccccc1F (stereo not drawn)	1.5%	?	-4.7%	-1.1	-4.9%	-1.7	3.7
(cont.)
SMILES	ClpP mod	gsp agonist	Sfp inh	Menin MLL FP FL	gsp antagonist	TRPV1 potentiator	CtBP-E1A blk
CN(C)S(=O)(=O)c1cccc(NC(=O)CNc2cccc(S(=O)(=O)N3CCCCC3)c2)c1	-2.8%	-84.8%[inhibitor]	nt	nt	nt	nt	-3.0
Cc1ccc(S(=O)(=O)N2CCN(c3ccc4nnc(-c5ccccc5)n4n3)CC2)cc1	-5.8%	-2.6%	8.1%	1.7	-9.8%	0.5	-3.3
CCOc1cc(C(=O)NCc2ccccc2)ccc1OCC(=O)N1CCOCC1	-3.7%	-29.0%	21.6%	0.0	1.0%	3.4	-9.3
CN(C)CC(C)(C)CNS(=O)(=O)c1cccc(Cl)c1Cl	-1.6%	-1.8%	4.0%	2.2	11.7%	-9.7	-1.5
CCCCCCCOC(=O)C[N+](C)(C)CCOC1CC2CCC1(C)C2(C)C (stereo not drawn)	nt	-21.7%	50.1µM*	1.7	8.4%	-9.0	-22.6
CC1(C)NC(=O)N(CC(=O)N2CCN(c3ccc([N+](=O)[O-])cc3)CC2)C1=O	-0.1%	-3.4%	nt	nt	-3.1%	-2.4	-1.7
COc1ccccc1NC(=O)Nc1ccc2[nH]c(=O)[nH]c2c1	-1.5%	-39.6%[inhibitor]	13.1%	-4.3	-9.1%	?	-14.2
O=C(N=C1SC2CS(=O)(=O)CC2N1Cc1ccc(Cl)cc1)C1CC1 (stereo not drawn)	1.1%	-8.0%	23.0%	-3.8	-9.0%	-3.2	6.6
CC(C)(C)Cc1nnc(NC(=O)CSc2ccccc2)s1	3.0%	-50.1%	14.1µM*	0.6	-6.4%	?	8.3
CCN(CC)S(=O)(=O)c1ccc(Cl)c(C(=O)NC)c1	-2.6%	-38.4%[inhibitor]	1.7%	2.4	3.6%	-5.5	-0.7
O=C(Nc1ccc(NC(=O)C2CCCCC2)nc1)c1ccccn1	nt	-1.0%[15.4 µM]	-12.2%	-0.1	-1.5%	-0.2	-9.6
CC(C)N(C(=O)CSc1nc2ccccc2n1Cc1ccc(F)cc1)C(C)C	1.0%	4.3%	7.8%	1.1	-24.1%	-0.7	-0.7
O=C(Nc1ccc(S(=O)(=O)NCc2ccccc2)cc1)c1ccc(Br)o1	1.2%	-17.2%	9.1%	2.6	1.0%[15.4 µM]	3.5	-14.9
CC(OC(=O)c1ccc([N+](=O)[O-])s1)C(=O)NC1CCCCC1C (stereo not drawn)	0.7%	19.9%	nt	nt	-4.4%	-1.4	nt
CCCn1cc(SCC(=O)Nc2cc(C)on2)c2ccccc21	1.7%	21.5%	-5.2%	nt	-5.4%	?	7.9
Nc1cc(S(=O)(=O)Nc2ccccc2Cl)ccc1N1CCCCC1	-5.1%	-5.6%	nt	nt	-2.2%	nt	-23.4
CCOc1ccccc1NC(=O)c1ccc(-n2cncn2)nc1	-5.8%	0.7%	13.4%	1.2	-8.4%	4.1	nt
COc1cccc(-c2ccc(NC(=O)C3CCCN(CCCn4cccn4)C3)cc2)c1 (stereo not drawn)	-5.0%	13.0%[15.4 µM]	5.7%	nt	8.7%	0.3	-9.4
O=C1C2CC=CCC2C(=O)N1c1ccc(NCCc2ccc(O)cc2)c([N+](=O)[O-])c1 (stereo not drawn)	nt	9.9%[15.4 µM]	-4.4%	0.4	31.6µM*	-1.2	?
CN(C)c1ccc(-c2sc(Nc3ccccc3)n[n+]2-c2ccc(F)cc2)cc1	-5.3%	nt	-10.2%	?	-19.5%	28.5	-1.2
CCOc1cc(/C=N/NC(=O)Nc2ccccc2)ccc1O	nt	-26.9%[15.4 µM]	-2.6%	1.4	16.1%	-0.6	?
CCC(=O)Nc1c(C(=O)N2CCCCCC2)cnn1-c1ccc(C)c(C)c1	1.2%	-6.8%	0.8%	-0.8	13.3%	-6.7	3.0
COc1ccc(OCC(=O)NC(=O)c2ccccc2)c([N+](=O)[O-])c1	0.7%	15.4%	nt	nt	5.5%	-7.2	nt
N#Cc1cc(-c2ccccc2)c[nH]c1=O	7.94µM*	-3.7%	-11.2%	-1.3	8.8%	-10.3	-3.1
CCOC(=O)c1ccc2c(c1)nc(SCC(=O)N1CCOCC1)n2CC	nt	-3.1%	11.4%	5.7	-5.2%	-17.8	2.1
Next part.
SMILES	ClpP mod	gsp agonist	Sfp inh	Menin MLL FP FL	gsp antagonist	TRPV1 potentiator	CtBP-E1A blk
Cc1ccc(C(=O)N/C(=C\c2cccs2)C(=O)N2CCN(C)CC2)cc1C	?	-30.6%	9.1%	nt	1.6%	-4.8	-1.1
Cc1oc(=O)c(NC(=O)c2ccccc2)cc1C(C)O (stereo not drawn)	-0.4%	27.3%	22.8%	5.9	5.8%	-0.5	nt
CCC1(CC)C(=O)C2=C3C1[C@H](C(=O)OC)C=C(C(=O)OC)C[C@H]3[C@H]1C(=O)N(CC(=O)OC)C(=O)[C@H]1[C@H]2C (stereo partly drawn)	0.5%	nt	6.4%	-0.3	0.9%	nt	3.5
COc1ccc(CNC(=O)CN2C(=O)NC3(CCCCCC3)C2=O)cc1OC	-2.2%	-44.4%[inhibitor]	16.4%	-0.7	7.1%	2.7	nt
COC(=O)c1cc2c(n1S(=O)(=O)c1ccc(C)cc1)C(=O)C(=O)c1[nH]cc(C(=O)OCc3ccccc3)c1-2	1.7%	7.0%	nt	nt	16.2%	nt	-20.1
CCOc1nc(Nc2ccc(OC)cc2)nc(OCC)n1	-2.1%	-25.9%	9.6%	-1.4	0.3%	-13.1	-11.4
Cc1ccc(S(=O)(=O)c2c(C)cc(C)[nH]c2=O)cc1	-11.5%	27.3%	6.2%	2.3	15.5%	-11.4	1.0
O=C(Nc1ccc2c(c1)OCCO2)c1cc2sccc2n1Cc1ccccc1	-10.0%	0.9%	-1.6%	-1.0	-14.4%	-31.2	-9.0
O=C(/C=C/c1ccc(Cl)cc1)Nc1ccc(Br)cn1	25.1µM*	8.3%[15.4 µM]	19.4%	-2.9	10.0%	9.0	-11.7

Screening results deposited in PubChem BioAssay by National Center for Advancing Translational Sciences (NCATS).
